From PubChem BioAssay
E coli growth: E. coli growth inhibition, primary screen, OD600; Escherichia coli growth, 23 h; active compounds read low; OD600 absorbance (no concentration beside the values); hit rate 0.21% among 330,000; AID 1053175, 2014;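 active = OD600 absorbance below the run mean of sample wells minus 3.6 SD, in any replicate, cut at about 0.56 in these data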;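 note: stock transfer was 300 nL into about 60 µL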
UCH37 DUB inh: inhibitors of human UCH37 deubiquitinase, primary screen, biochemical, Ub-AMC cleavage, fluorescence; Ubiquitin carboxyl-terminal hydrolase isozyme L5 (Homo sapiens), Q9Y5K5; purified proteasome/UCH37; inhibition, % (concentration not given with the values); hit rate 0.33% among 330,000; AID 588478, 2011;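 active = mean of two replicates above 20%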;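 note: 0% = compound-free wells with enzyme and 100% = wells lacking proteasome; stock transfer was 100 nL into about 20 µL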
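Reagent: Ub-AMC substrate; assay system: Proteasome-associated human UCH37 deubiquitinase; controls: no-proteasome and no-compound wells; read-out: % inhibition of Ub-AMC cleavage fluorescence; timing: 30 min preincubation with enzyme, 25 min cleavage at room temperature; signal: AMC fluorescence from Ub-AMC cleavage, excitation 355 nm, emission 460 nm; buffer or medium: Tris-HCl pH 7.4 plus ovalbumin, ATP-MgCl2, DTT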
LANA-H2B inh: blockers of LANA interaction with H2A/H2B – biochemical, FP readout, HTS, primary screen | cell-free LANA-H2A/H2B peptide, fluorescence polarization | inhibition, % (no concentration beside the values) | hit rate 0.6% among 320,000; in the data active = inhibition mostly above about 10%, no sharp cut-off; inactive = mostly below about 6.7%;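 note: stock transfer was 7.5 nL into about 10 µL; 0% = median of vehicle wells and 100% = median of positive control wells; one replicate is shown; the record names a cut of 25% in any replicate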
HNF4A DNA FP: change in binding of human HNF4A to DNA, primary screen, biochemical, fluorescence polarization, FITC-DNA. 1 h. activity change, % at 10 µM. hit rate 0.3% among 360,000. AID 1224865, 2016; in the data active = activity change above about 30%, passing the limit was not always enough;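 note: controls were the assay level and a saturating level of protein; the project sought stronger binding though the title names inhibitors; some compounds called inactive have numbers as strong as hits; positive values seem to mean higher polarization but the record does not say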
FGF22 binding: binders of human FGF22 protein, primary screen, FGF22 synaptogenesis inhibitor project, biophysical, thermal shift, single point. calls only at 9.99 µM. recombinant FGF22 thermal shift, SYPRO orange fluorescence; percent of sucrose octasulfate shift, DMSO zero. Fibroblast growth factor 22 (Homo sapiens), Q9HCT0. hit rate 1.5% among 340,000. AID 651658, 2012;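 active = melting point raised past a set limit in the mean and every replicate; three in four hits are not shown here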
Target sequence (Q9HCT0 whole entry, looked up): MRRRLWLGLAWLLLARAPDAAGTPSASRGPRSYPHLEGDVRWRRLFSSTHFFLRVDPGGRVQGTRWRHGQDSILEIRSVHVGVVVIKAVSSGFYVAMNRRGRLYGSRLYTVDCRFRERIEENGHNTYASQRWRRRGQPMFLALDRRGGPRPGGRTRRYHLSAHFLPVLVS
ALR H2O2 inh: inhibitors of human ALR sulfhydryl oxidase, primary screen, biochemical, H2O2 detection, HRP-luminol luminescence, single point; purified ALR, DTT oxidation; hit rate 3.8% among 290,000; AID 485317, 2010; inhibition, % (test concentration not listed);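 active = mean and each replicate at 75% or more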;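 note: stock transfer was 7.5 nL into about 7.5 µL; 0% = neutral wells and 100% = wells with inactivated enzyme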
Target sequence (P55789 whole entry, looked up): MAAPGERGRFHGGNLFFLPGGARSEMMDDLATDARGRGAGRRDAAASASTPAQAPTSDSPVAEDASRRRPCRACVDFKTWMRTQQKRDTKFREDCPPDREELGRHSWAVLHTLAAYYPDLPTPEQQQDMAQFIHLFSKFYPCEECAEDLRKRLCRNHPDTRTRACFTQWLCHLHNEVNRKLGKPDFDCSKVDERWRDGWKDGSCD
B2AR ag: beta2AR agonists driving receptor internalization, primary screen, cell-based, FAP fluorogen, flow cytometry. response, % (test concentration not listed). hit rate 0.43% among 340,000. Beta-2 adrenergic receptor (Homo sapiens), P07550. Am2.2-beta2AR cells; reference of the scale not given here;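 active = response above a set limit, near 3 SD of response in nonfluorescent compounds, cut at about 42% in these data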;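 note: stock transfer was 100 nL into about 11 µL; a reference agonist was the positive control; negative values mostly stem from fluorescent compounds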
Target sequence (P07550 whole entry, looked up): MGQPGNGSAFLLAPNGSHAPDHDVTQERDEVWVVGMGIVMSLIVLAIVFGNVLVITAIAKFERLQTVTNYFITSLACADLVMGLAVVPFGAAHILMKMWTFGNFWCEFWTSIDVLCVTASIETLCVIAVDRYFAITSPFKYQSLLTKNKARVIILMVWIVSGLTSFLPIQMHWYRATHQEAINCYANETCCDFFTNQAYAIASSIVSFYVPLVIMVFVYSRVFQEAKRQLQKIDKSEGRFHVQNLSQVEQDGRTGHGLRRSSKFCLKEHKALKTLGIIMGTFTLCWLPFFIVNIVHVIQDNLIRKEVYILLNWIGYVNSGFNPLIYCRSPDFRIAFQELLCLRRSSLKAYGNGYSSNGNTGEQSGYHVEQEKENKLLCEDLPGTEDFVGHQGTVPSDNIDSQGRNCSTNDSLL
Active calls of the source: *.

`CCOc1ccc(C(C(=O)NCC2CCCO2)N(Cc2cccnc2)C(=O)c2snc(C(N)=O)c2N)cc1` (centres undefined) gave E coli growth 0.66, UCH37 DUB inh -86, HNF4A DNA FP 6.2, FGF22 binding inactive and B2AR ag 6.
For CC(=O)Nc1ccc(C(=O)N2CCCC2)cc1 the results were E coli growth 0.73, UCH37 DUB inh -1.0, LANA-H2B inh -0.1, HNF4A DNA FP 0.0, ALR H2O2 inh -5 and B2AR ag 1.
For COC(=O)c1sc(S(=O)(=O)N2CCN(c3ccccc3)CC2)c(C(=O)OC)c1C the results were E coli growth 0.77, UCH37 DUB inh 2.0, LANA-H2B inh -1.5, HNF4A DNA FP -2.4, ALR H2O2 inh -13 and B2AR ag 3.
For Nc1nc(SCc2ccccc2)c2ncn(C3CCCO3)c2n1 (centres undefined) the results were E coli growth 0.67, UCH37 DUB inh 0.4, HNF4A DNA FP 1.7, FGF22 binding inactive and B2AR ag -56.
Screening O=C(NCCSCc1ccco1)Nc1ccccc1 returned E coli growth 0.69, UCH37 DUB inh 1.3, LANA-H2B inh -3.3, HNF4A DNA FP -2.6, FGF22 binding inactive, ALR H2O2 inh -5 and B2AR ag 3.
CC1C(c2ccccc2)C(C#N)(C#N)C2(C#N)C(=O)NC1(N)C2C (centres undefined) was read as E coli growth 0.68, UCH37 DUB inh 2.5, LANA-H2B inh 4.2, HNF4A DNA FP 1.3 and B2AR ag 8.
COc1ccc(S(=O)(=O)N2CCC(C(=O)NC3CCCC3)CC2)cc1OC was read as E coli growth 0.73, UCH37 DUB inh 4.8, LANA-H2B inh 16*, HNF4A DNA FP 3.8, FGF22 binding inactive, ALR H2O2 inh -11 and B2AR ag 3.
`N#Cc1c(NC(=O)c2cccc(S(=O)(=O)Nc3ccc(C(=O)O)cc3)c2)sc2c1CCCC2` gave E coli growth 0.66, UCH37 DUB inh 6.6, LANA-H2B inh -6.0, HNF4A DNA FP 4.1, ALR H2O2 inh 89* and B2AR ag -2.
For Cc1ccc(S(=O)(=O)N(C)C)cc1NC(=O)C(C)OC(=O)c1ccc2c(c1)OCCO2 (centres undefined) the results were E coli growth 0.67, UCH37 DUB inh 2.0, LANA-H2B inh 1.1, HNF4A DNA FP 1.6, FGF22 binding inactive, ALR H2O2 inh -1 and B2AR ag 2.
Cc1ccc2nc(N(CCN(C)C)C(=O)c3ccc4c(c3)OCCO4)sc2c1 was read as E coli growth 0.69, UCH37 DUB inh 6.5, LANA-H2B inh -1.1, HNF4A DNA FP -3.2, FGF22 binding inactive, ALR H2O2 inh 0 and B2AR ag -4.
O=C(OCC(=O)N1CCC(Cc2ccccc2)CC1)c1ccccc1NCCO was read as E coli growth 0.65, UCH37 DUB inh -373, LANA-H2B inh 5.8, HNF4A DNA FP -3.2, FGF22 binding inactive, ALR H2O2 inh -16 and B2AR ag -2.
`COc1ccc(S(=O)(=O)N2CCN(S(=O)(=O)c3ccc4c(c3)OCCO4)CC2)cc1` gave E coli growth 0.69, UCH37 DUB inh 2.9, LANA-H2B inh 6.0, HNF4A DNA FP -2.2 and B2AR ag -1.
For CC1CC(C)CN(CC(=O)N2CCOCC2)C1 (centres undefined) the results were E coli growth 0.68, UCH37 DUB inh 1.7, LANA-H2B inh -0.2, HNF4A DNA FP -2.3, FGF22 binding inactive, ALR H2O2 inh -3 and B2AR ag -1.
For Cc1cc2ccccc2cc1CN1CCOCC1 the results were E coli growth 0.66, UCH37 DUB inh 1.4, LANA-H2B inh 6.5, HNF4A DNA FP -0.4, ALR H2O2 inh -5 and B2AR ag 4.
Nc1nc(SCc2ccccc2)cc(SCc2ccccc2)n1 was read as E coli growth 0.64, UCH37 DUB inh 2.9, HNF4A DNA FP 1.8, FGF22 binding inactive and B2AR ag -6.
For CC(C)c1c(C(=O)N/N=C/c2ccsc2)nnn1-c1nonc1N the results were LANA-H2B inh -6.9, HNF4A DNA FP -3.3, FGF22 binding inactive, ALR H2O2 inh -18 and B2AR ag -12.
Cc1ccc(OCC(O)Cn2c(N3CCOCC3)nc3c2c(=O)[nH]c(=O)n3C)cc1 (centres undefined) was read as E coli growth 0.75, UCH37 DUB inh 0.9, LANA-H2B inh -0.3, HNF4A DNA FP -1.4, ALR H2O2 inh -10 and B2AR ag -5.
CCOC(CNC(=O)Cn1nc(Cc2ccncc2)c2ccccc2c1=O)OCC was read as E coli growth 0.69, UCH37 DUB inh 2.6, LANA-H2B inh 7.4, HNF4A DNA FP -1.9, FGF22 binding inactive, ALR H2O2 inh 17 and B2AR ag -4.
For CCC1Oc2ccc(C)cc2N(CC(=O)NCCN2C(C)CCCC2C)C1=O (centres undefined) the results were E coli growth 0.67, UCH37 DUB inh 2.3, LANA-H2B inh 1.6, HNF4A DNA FP 2.3, ALR H2O2 inh 6 and B2AR ag 5.
O=C(NC(NC(=S)Nc1ccccc1O)C(Cl)(Cl)Cl)c1ccco1 (centres undefined) was read as E coli growth 0.61, UCH37 DUB inh 2.4, LANA-H2B inh -1.3, HNF4A DNA FP -1.4, FGF22 binding inactive, ALR H2O2 inh 48 and B2AR ag 5.
`CC1=NCCN1CCNC(=O)Nc1ccc(C(C)(C)C)cc1` gave E coli growth 0.67, UCH37 DUB inh -0.8, LANA-H2B inh 4.8, HNF4A DNA FP 5.9, FGF22 binding inactive, ALR H2O2 inh -1 and B2AR ag -8.
Screening COC(=O)/C(=C\C=C\c1ccccc1)NC(=O)c1ccccc1 returned UCH37 DUB inh 7.5, LANA-H2B inh 1.5, HNF4A DNA FP 2.2, ALR H2O2 inh -20 and B2AR ag 0.
Cc1ccc(CN2CCCN(Cc3c(C)cc(C)cc3C)S2(=O)=O)cc1 was read as E coli growth 0.67, UCH37 DUB inh 3.9, LANA-H2B inh 11, HNF4A DNA FP -1.0, FGF22 binding inactive, ALR H2O2 inh -5 and B2AR ag 0.
COCCSc1nnc(NC(=O)c2ccc3c(c2)OCO3)s1 was read as E coli growth 0.7, UCH37 DUB inh 0.5, LANA-H2B inh 3.4, HNF4A DNA FP -1.1, FGF22 binding inactive, ALR H2O2 inh 2 and B2AR ag -2.
Screening Cc1ccc2c(c1)N(Cc1ccc3c(c1)OCO3)C(=O)C(C)O2 (centres undefined) returned E coli growth 0.69, UCH37 DUB inh 3.5, LANA-H2B inh 4.2, HNF4A DNA FP -1.7, FGF22 binding inactive, ALR H2O2 inh 4 and B2AR ag 14.
`COC(=O)c1ccc(CSc2ccc3nnc(-c4ccccc4)n3n2)o1` gave E coli growth 0.72, UCH37 DUB inh -12, LANA-H2B inh 11, HNF4A DNA FP -3.4, ALR H2O2 inh 14 and B2AR ag -5.
CC1(C)SC(=S)N(Cc2ccc3c(c2)OCO3)C1N(O)C(=O)NC1CCCCC1 (centres undefined) was read as E coli growth 0.76, UCH37 DUB inh 5.0, LANA-H2B inh 0.2, HNF4A DNA FP -4.6, ALR H2O2 inh -3 and B2AR ag 4.
`Cc1coc(C)c1C(=O)CC1(O)C(=O)N(Cc2ccccc2)c2ccccc21` (centres undefined) gave E coli growth 0.68, UCH37 DUB inh 3.8, LANA-H2B inh -15, HNF4A DNA FP -0.2, ALR H2O2 inh -13 and B2AR ag 2.
For COc1cc(Cl)c(C)cc1NC(=O)c1ccccc1-n1cnnn1 the results were E coli growth 0.69, UCH37 DUB inh 1.0, LANA-H2B inh 5.3, HNF4A DNA FP 2.8, FGF22 binding inactive, ALR H2O2 inh 0 and B2AR ag 1.
`O=P1(NC2CCCCC2)OCC2(CO1)COP(=O)(NC1CCCCC1)OC2` (centres undefined) gave E coli growth 0.74, UCH37 DUB inh 3.6, HNF4A DNA FP -1.2, FGF22 binding inactive and B2AR ag 1.
For Cc1cc(C)nc(N(C#N)CC(=O)Nc2ccccc2)n1 the results were E coli growth 0.71, UCH37 DUB inh 5.1, LANA-H2B inh -3.2, HNF4A DNA FP -0.7 and B2AR ag -6.
For CC1C(=O)Nc2ccc(S(=O)(=O)NCCc3ccc(Cl)cc3)cc2NC1=O (centres undefined) the results were E coli growth 0.74, UCH37 DUB inh 2.8, LANA-H2B inh -7.7, HNF4A DNA FP 1.6, FGF22 binding active, ALR H2O2 inh -3 and B2AR ag 0.
For CNC(=S)Nc1cccc(S(=O)(=O)NC2=NCCC2)c1 the results were E coli growth 0.73, UCH37 DUB inh 5.8, LANA-H2B inh 3.2, HNF4A DNA FP 0.1, FGF22 binding inactive, ALR H2O2 inh -9 and B2AR ag 4.
CCCC(=O)N1CCc2[nH]c3ccccc3c2C1 was read as E coli growth 0.73, UCH37 DUB inh -11, LANA-H2B inh -4.0, HNF4A DNA FP -0.4, ALR H2O2 inh -30 and B2AR ag 0.
`COc1ccc(OC)c(NC(=O)c2ccc(CN3CCc4ccccc4C3)cc2)c1` gave E coli growth 0.65, UCH37 DUB inh 0.2, LANA-H2B inh 0.7, HNF4A DNA FP 1.7, FGF22 binding inactive, ALR H2O2 inh -29 and B2AR ag 6.
Screening COc1ccccc1S(=O)(=O)Cc1ccc(C(=O)NCCCN2CCN(c3ccc(F)cc3)CC2)o1 returned E coli growth 0.66, UCH37 DUB inh 1.4, LANA-H2B inh -6.0, HNF4A DNA FP -2.0, FGF22 binding inactive, ALR H2O2 inh -3 and B2AR ag -10.
Screening CCN(CC1COc2ccccc2O1)C(=S)NCCCN(C)C (centres undefined) returned E coli growth 0.68, UCH37 DUB inh 4.6, LANA-H2B inh -3.2, HNF4A DNA FP -0.4, FGF22 binding inactive, ALR H2O2 inh -5 and B2AR ag -6.
Screening O=C(Oc1ccc(C(=S)N2CCC(O)CC2)cc1)c1ccc(Cl)cc1 returned LANA-H2B inh 6.2, HNF4A DNA FP -1.1, FGF22 binding inactive, ALR H2O2 inh -11 and B2AR ag 8.
For Nc1ccc(N2CCOCC2)c2nonc12 the results were E coli growth 0.68, UCH37 DUB inh 16, LANA-H2B inh 2.8, HNF4A DNA FP 1.9, FGF22 binding inactive, ALR H2O2 inh 67 and B2AR ag -4.
For Cc1nc2ccc(N)cc2s1 the results were E coli growth 0.74, UCH37 DUB inh 2.2, LANA-H2B inh 2.3, HNF4A DNA FP 1.0, FGF22 binding inactive, ALR H2O2 inh 99* and B2AR ag -28.
For COc1ccc(NS(=O)(=O)c2cccc(C(=O)OCC(=O)Nc3cc(C)on3)c2)cc1 the results were E coli growth 0.68, UCH37 DUB inh 1.4, LANA-H2B inh 2.4, HNF4A DNA FP -0.7, ALR H2O2 inh -3 and B2AR ag -2.
For COc1ccc(S(=O)(=O)Nc2cccc3ccc(O)cc23)cc1 the results were E coli growth 0.69, UCH37 DUB inh 4.5, LANA-H2B inh -1.0, HNF4A DNA FP 1.5, FGF22 binding inactive, ALR H2O2 inh 54 and B2AR ag 4.
Screening COc1ccccc1OCCSc1nc(C)c(Cc2ccccc2)c(=O)[nH]1 returned E coli growth 0.75, UCH37 DUB inh 2.4, LANA-H2B inh -3.8 and ALR H2O2 inh -13.

Gathered by group: the compounds so far with a cyano group
CC1C(c2ccccc2)C(C#N)(C#N)C2(C#N)C(=O)NC1(N)C2C (centres undefined) was read as E coli growth 0.68, UCH37 DUB inh 2.5, LANA-H2B inh 4.2, HNF4A DNA FP 1.3 and B2AR ag 8.
`N#Cc1c(NC(=O)c2cccc(S(=O)(=O)Nc3ccc(C(=O)O)cc3)c2)sc2c1CCCC2` gave E coli growth 0.66, UCH37 DUB inh 6.6, LANA-H2B inh -6.0, HNF4A DNA FP 4.1, ALR H2O2 inh 89* and B2AR ag -2.
For Cc1cc(C)nc(N(C#N)CC(=O)Nc2ccccc2)n1 the results were E coli growth 0.71, UCH37 DUB inh 5.1, LANA-H2B inh -3.2, HNF4A DNA FP -0.7 and B2AR ag -6.

Not all compounds are listed, so the mix of outcomes need not match the whole.
